CtBP-E1A inh: CtBP/E1A binding inhibition. activity change, % (concentration not given with the values). AlphaScreen GST-E1A/His-CtBP binding, 1536-well; stronger effect = lower value; control for the full effect not named in the record. actives 0.49% (n = 340,000); in the data active means activity change below about -65%; inconclusive means about -30% to -65%; inactive means above about -30%; also: % is scaled to controls: 0 for no effect and ±100 for the full control effect
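AlphaScreen with 125 nM GST-E1A and 125 nM His-CtBP (5X stocks) in Tris pH 8.0, 300 mM NaCl, BSA, Tween 20, TCEP. Compounds preincubated 2 h at 37 deg C, then glutathione donor/nickel acceptor beads added for 1 h at 37 deg C in dark.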
TRPML1 inh: inhibitors of human TRPML1 channel. Q9GZU1. TRPML1-inducible cells, Ca2+ dye fluorescence, FDSS; stronger effect = lower value; inhibition of EC80 agonist-evoked calcium signal. activity change, negative = inhibition, % (test concentration not listed). actives 0.02% (n = 390,000); in the data active means activity change below about -50%; inconclusive means about -30% to -50%; inactive means above about -30%;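 also: stimulus is agonist 54-4 at its EC80 concentration; % is scaled to controls: 0 for no effect and ±100 for the full control effect; compound concentration not given in the record; the text of the record puts the active cut at -80%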
Target sequence (Q9GZU1 whole entry, looked up): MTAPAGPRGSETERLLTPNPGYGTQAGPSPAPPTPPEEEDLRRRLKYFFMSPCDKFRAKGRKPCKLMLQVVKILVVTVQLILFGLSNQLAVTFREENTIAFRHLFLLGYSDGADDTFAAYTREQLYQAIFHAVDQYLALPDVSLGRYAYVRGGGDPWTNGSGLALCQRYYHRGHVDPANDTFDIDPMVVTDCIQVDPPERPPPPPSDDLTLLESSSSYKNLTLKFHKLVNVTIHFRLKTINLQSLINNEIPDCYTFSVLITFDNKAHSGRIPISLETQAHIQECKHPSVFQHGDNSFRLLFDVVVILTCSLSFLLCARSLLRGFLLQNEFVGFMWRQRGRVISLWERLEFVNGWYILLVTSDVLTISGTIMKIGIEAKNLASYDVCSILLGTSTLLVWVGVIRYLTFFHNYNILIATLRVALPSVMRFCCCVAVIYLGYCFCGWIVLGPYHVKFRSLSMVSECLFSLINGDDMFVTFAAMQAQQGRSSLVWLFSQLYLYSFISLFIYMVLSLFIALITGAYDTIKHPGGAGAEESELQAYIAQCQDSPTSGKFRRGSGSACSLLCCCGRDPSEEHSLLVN
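TRPML1-DL cells, Tet-induced overnight (~16 h, 37 °C) at 1,500 cells/well, were loaded with Ca8 no-wash dye plus quencher for 45-90 min at room temperature. Compounds were pinned during FDSS kinetic reading; agonist 54-4 at EC80 (4 uM final) then added.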
Six1-Eya2 inh: inhibitors of human Six1/Eya2 interaction | Q15475+O00167 | actives 0.56% (n = 360,000) | AlphaScreen GST-Six1/His-Eya2 binding, biochemical; stronger effect = lower value; control for the full effect not named in the record | activity change, % (concentration not given with the values) | AID 651725; in the data active = activity change below about -65%; inconclusive = about -30% to -65%; inactive = above about -30%; also: % is scaled to controls: 0 for no effect and ±100 for the full control effect
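Six1/Eya2 binding was read as AlphaScreen signal after compounds were pinned into GST-Six1 plus His-tagged Eya2 (5X stock 250/500 nM) in pH 8.0 Tris/NaCl/TCEP buffer, beads added, then incubated 1 h, 37 C, dark.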
TRPV1 potentiator: potentiators of human vanilloid receptor 1 (TRPV1); Q8NER1; potentiation, % at 8.33 µM; TRPV1-expressing cells, Fluo-8 calcium influx, capsaicin EC20 potentiation; host cell line not named in the record; control for the full effect not named in the record; actives 0.02% (n = 320,000); active means potentiation above 80%; inconclusive means 30% to 80%; inactive means below 30%; also: 0% is about no effect
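TRPV1-expressing cells were cultured overnight at 35.5C and loaded with Fluo-8 calcium dye for 40 to 90 min at room temperature. After a 10 s baseline, compound was added and calcium influx was read kinetically for 3 min (ex 480/em 520 nm).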
D2 potentiator: positive allosteric modulators of human D2 dopamine receptor; AID 624464; potentiation, % (test concentration not listed); DiscoveRx D2 beta-arrestin cells, luminescence, 90 min; 100% = 57 uM dopamine signal; actives 0.23% (n = 360,000); P14416; active = potentiation of 50% or more; inconclusive = 30% to 50%; inactive = 30% or less;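 also: compound concentration not given in the record; tested on top of an EC20 dose of dopamine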
Target sequence (P14416 whole entry, looked up): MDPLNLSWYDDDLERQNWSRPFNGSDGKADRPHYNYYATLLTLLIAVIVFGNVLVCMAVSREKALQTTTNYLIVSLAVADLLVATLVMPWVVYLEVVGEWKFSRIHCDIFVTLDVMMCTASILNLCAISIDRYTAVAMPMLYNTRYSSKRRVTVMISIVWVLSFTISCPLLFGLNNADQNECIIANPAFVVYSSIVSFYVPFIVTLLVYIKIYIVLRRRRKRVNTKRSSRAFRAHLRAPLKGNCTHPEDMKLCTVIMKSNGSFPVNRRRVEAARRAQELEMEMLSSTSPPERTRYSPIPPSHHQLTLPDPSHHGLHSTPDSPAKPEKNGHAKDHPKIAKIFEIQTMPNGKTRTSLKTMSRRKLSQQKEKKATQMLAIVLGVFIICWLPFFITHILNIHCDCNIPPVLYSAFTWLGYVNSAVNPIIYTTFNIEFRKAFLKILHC
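PathHunter D2 cells, attached overnight at 37 deg C, received compound in DMSO plus dopamine at EC20 (50 nM final) for 90 min at 37 deg C. Beta-arrestin recruitment was read as luminescence after 1 h with detection reagent at ambient temperature.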
TRPML1 agonist: agonists of human TRPML1 channel | TRPML1-expressing cells, Ca2+ dye fluorescence, FDSS; host cell line not named in the record; reference of the full effect not given here | activation, % (no concentration beside the values) | Q9GZU1 | actives 0.12% (n = 410,000) | AID 624414; in the data active = activation above about 50%; inconclusive = about 30% to 50%; inactive = below about 30%; also: 0% is about no effect; the text of the record puts the active cut at 80%
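In this qHTS format, compounds were pin-transferred onto Ca8-dye-loaded TRPML1-DL cells induced with Tet overnight, and intracellular Ca2+ fluorescence was recorded kinetically for 110 s after a 10 s baseline. A subsequent 4uM final 54-4 (EC80) addition followed by a second 110 s read served as the antagonist phase.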
Numbers without * were called inactive; ? = inconclusive; . = not tested or not shown; & = joins results of further samples.

mol | TRPV1 potentiator | TRPML1 inh | D2 potentiator | Six1-Eya2 inh | CtBP-E1A inh | TRPML1 agonist
O=C(CN1C2=NCCN2c2ccccc21)c1ccco1 | 13 | -4 | -8 | -3 | 6 | 0.1
COCCCNC(=O)c1ccc(S(=O)(=O)c2ccc(C)cc2)c(NC(C)=O)c1 | 3 | 2 | 2 | 7 | 9 | 0.5
O=C(CN1CCCCCC1=O)N1CCN(S(=O)(=O)c2cccs2)CC1 | 7 | -12 | -6 | 3 | . | 0.2
Cc1cccc(NC(=O)C2(c3cccs3)CCOCC2)n1 | -1 | 3 | -7 | 9 | -11 | 0.5
Nc1nnc(SCCOc2ccccc2)s1 | 21 | -11 | 7 | 0 | 7 | 0.5
Cc1ccccc1N(C(=O)CS(=O)CC(=O)Nc1ccc(F)cc1)C(C)C(=O)NC(C)(C)C (stereo not given) | 5 | -8 | -6 | 7 | -2 | 0.5
CCOC(=O)c1c(NC(=O)C2C3CCC(O3)C2C(=O)O)sc(C)c1-c1ccc(C)cc1 (stereo not given) | 2 | 5 | -2 | 8 | -1 | 0.4
Cc1ccc(NC(=O)CCn2nc(C)cc2C)c(C)c1 | 7 | 9 | 0 | 1 | 1 | -0.4
CC(=O)c1c(C)[nH]c(C(=O)OCC(=O)N2CCN(c3ccccc3)CC2)c1C | . | 12 | 0 | 2 | 4 | -0.6
O=C(CCS(=O)(=O)c1ccccc1)Nc1ccc(-c2nc3ccccc3s2)cc1 | 3 | 1 | -3 | 0 | 1 | 0.1
COc1ccc(N2CCN(C(=N)/C(C(C)=O)=C(\C)O)CC2)cc1 | -3 | -10 | 1 | 4 | -15 | -0.7
O=C(Cn1cnc2nc3n(c2c1=O)CCC3)NCc1ccccc1 | -1 | 29 | -1 | 0 | 0 | 2.9
COn1c(SCC(=O)N(C)C)nc2ccccc2c1=O | 7 | 11 | -2 | 3 | 3 | 1.9
Cc1ccccc1NC(=O)c1ccc(S(=O)(=O)N2CCCC2)cc1 | -4 | 6 | -5 | 6 | 7 | -0.8
COC(=O)c1ccc2nc(-c3ccc(C)cc3)c(Cc3ccc(C)cc3)n2c1 | . | . | . | 1 | 4 | 1.6
C=C(C)COc1ccc(-c2n[nH]c(C)c2-c2ccc(OC)cc2)c(O)c1 | -3 | 6 | 19 | -13 | 0 | -1.1
CC(C)OCCCNC(=O)C1CCC(CNS(=O)(=O)c2cccc3nsnc23)CC1 (stereo not given) | -11 | 2 | 0 | -8 | 0 | -0.6
Cc1ccccc1NC(=O)Cn1nnc2ccccc21 | -5 | -17 | -3 | 1 | 4 | -0.6
COc1ccc(N2CCN(S(=O)(=O)CCNC(=O)C3CC(=O)N(c4ccccc4)C3)CC2)cc1 (stereo not given) | -5 | 16&-5 | -5 | 1 | 5 | -0.8&2.0
O=C(c1cccc(S(=O)(=O)N2CCCC2)c1)N1CCN(c2ncccn2)CC1 | -6 | -5 | -4 | -1 | 5 | -0.6
COc1ccc(S(=O)(=O)Nc2ccc3c(c2)n(C)c(=O)n3C)cc1 | 6 | 9 | -4 | 6 | 8 | 1.0
O=C(NCc1cccc(F)c1)C1CCN(C(=O)c2sccc2-n2cccc2)CC1 | 6 | 1&-4 | -5 | -1 | . | 0.2&1.4
Cc1cccc(N=C2NC(=O)/C(=C/C=C/c3ccco3)S2)c1 | 23 | 32 | 3 | ? | -4 | 1.5
Cc1noc(C)c1S(=O)(=O)N1CCN(Cc2ccc3c(c2)OCO3)CC1 | 1 | -11 | -3 | -6 | -1 | 0.3
COc1cc(SC#N)ccc1N=Cc1c(C)[nH]n(-c2ccc(Cl)cc2)c1=O | 0 | -4 | -5 | -15 | -6 | -1.0
Cc1ccc(C(=O)O)cc1-n1c(=O)n(Cc2ccccc2)c(=O)c2[nH]cnc21 | 3 | -3 | -6 | 0 | 9 | -0.9
O=C(CSc1nccc(-c2cccs2)n1)Nc1ccccc1 | -6 | -13 | -28 | 5 | . | -0.3
Cc1c(C(c2cccc(O)c2)c2c(C)n(C)n(-c3ccccc3)c2=O)c(=O)n(-c2ccccc2)n1C | 2 | -7 | -18 | 0 | 10 | -0.3
CCCCOC(=O)Nc1ccc(S(=O)(=O)Nc2cc(C)nc(C)n2)cc1 | 27 | 16 | -3 | 1 | -2 | -0.5
Cc1nn(Cc2ccc(F)cc2)c(C)c1NC(=O)c1cnn2c1NC(c1ccccc1)CC2C(F)(F)F (stereo not given) | -6 | -3 | 4 | 2 | 5 | 0.0
NC(=O)c1ccsc1NC(=O)c1ccco1 | 5 | 0 | 0 | -22 | -21 | -0.7
CCN(CC)c1ncnc2c1ncn2[C@H]1CN(Cc2ccncc2)C[C@@H](CO)O1 | . | . | -3 | 1 | 5 | -0.8
COc1cc(Br)cc(C2C3=C(CCCC3=O)N(c3ccc(F)cc3)C3=C2C(=O)CCC3)c1O | -8 | 45 | -5 | 3 | -3 | 0.0
CCc1ccc(NC(=O)C2C3/C=C\CCCCC32)cc1 (stereo not given) | -17 | 2 | -2 | 15 | -2 | -0.2
CCN1CCN(C(=O)C(C)Nc2cc(Cl)c(OC)cc2OC)CC1 (stereo not given) | 2 | -1 | -10 | -6 | 2 | -0.6
Cc1cc(C)n(-c2nc3c(c(=O)[nH]c(=O)n3C)n2CC(O)COc2ccccc2C)n1 (stereo not given) | 3 | 5 | -6 | 5 | -9 | 1.1
Cc1c(C(=O)NCc2ccc3c(c2)OCO3)oc2ccc(Br)cc12 | 0 | 1 | -13 | -3 | 3 | 1.7
CCOC(=O)N1CCN(C(=O)CSCC(=O)Nc2nc(-c3ccccc3)cs2)CC1 | -23 | -8 | 6 | -1 | 2 | 1.1
COCCCNC(=O)C[C@@H]1C[C@@]2(C(=O)OC)CCCCC=C2N(CCC2=CCCCC2)C1=O | . | . | . | 2 | -3 | -0.5
CCCC(=O)NC(Nc1ccc(S(=O)(=O)Nc2cc(C)on2)cc1)(C(F)(F)F)C(F)(F)F | . | 13 | -1 | -3 | -2 | -1.0
CCOC(=O)C1CCN(C(=O)CSc2ccccc2Cl)CC1 | -6 | 0 | -5 | 10 | 31 | 0.4
O=C(NC1CCCC1)C(=O)N(Cc1cccnc1)C(C(=O)NCC1CCCO1)c1ccco1 (stereo not given) | 4 | 8 | -4 | 22 | 2 | -0.4
Cc1cc(Nc2ccccc2F)n2nc(C)nc2n1 | -2 | 14 | -8 | 2 | 0 | 1.0
Cc1c(N2C(=O)/C(=C\c3ccc(N(C)C)cc3)N(C)C2=S)c(=O)n(-c2ccccc2)n1C | -2 | -2 | -21 | -20 | -9 | 9.9
CCOC(=O)c1c(NC(=O)c2c(C(=O)O)cccc2[N+](=O)[O-])sc(C)c1C | 1 | 15 | 5 | 1 | -13 | 0.4
Cc1nc(-c2ccc(F)cc2)c(CC(=O)N(C)CC(=O)Nc2ccccc2Cl)s1 | -1 | 2 | 1 | 6 | -2 | -0.6
CCOC(=O)c1cc(=O)n2[nH]c(-c3ccc(C)cc3)cc2n1 | 16 | 7 | -9 | 3 | -1 | -0.9
Cn1cc(C(=O)NCc2ccc(F)cc2)c(=O)c2cc(S(=O)(=O)N3CCCCC3)ccc21 | -2 | 22&-2 | -16 | 7 | 0 | 0.4&0.4
CSc1nnc(C)c(/C=C/NOCc2cccc(F)c2)n1 | 0 | 6 | -35 | -17 | -6 | 3.1
COC(=O)c1c(C(=O)OC)c(-c2ccccc2)n2c1CS(=O)C2 (stereo not given) | 92* | 34 | -10 | 8 | -1 | 0.5
CCn1c(SCC(=O)NC2CCCCC2)nnc1-c1ccccn1 | -4 | -8 | -2 | -4 | -1 | 0.8
CCOc1ccc(CCNC(=O)Cc2ccc(NC3=NC4CS(=O)(=O)CC4S3)cc2)cc1 (stereo not given) | 15 | 22 | -3 | -1 | 6 | 0.3
Cc1cc(NC(=O)C(Cl)Cl)cc2c1OCO2 | . | -5 | -2 | -4 | -9 | -1.2
COc1cc2cnc(-c3ccsc3)c(-c3ccc(F)cc3)c2cc1OC | 4 | 1 | 4 | 0 | -4 | 1.0
Cc1ccc(-c2nnn(CC(=O)N(CC(=O)NC(C)C)c3cnc4ccccc4c3)n2)o1 | -4 | 27 | -1 | 0 | -6 | 0.4
Cc1ccc(-c2noc(-c3ccno3)n2)cc1 | . | 12 | -1 | 8 | 13 | 1.8
Cc1onc(-c2ccccc2)c1CNS(=O)(=O)c1cccc(Cl)c1 | . | -20 | -5 | 5 | 4 | 0.1
N#C/C(=C\c1ccc(O)c([N+](=O)[O-])c1)c1nc2ccccc2s1 | 24 | 14 | -16 | -28 | ? | 1.2
C#CCNc1nc(CC)nc2c1nnn2Cc1ccccc1F | 0 | -6 | -25 | 4 | 0 | 1.5
Fc1ccc(N2N=C(c3cccs3)CC2c2ccccc2)cc1 (stereo not given) | -4 | -6 | 5 | 58 | 85 | 1.7

Next section; the last four above are carried over.
mol | TRPV1 potentiator | TRPML1 inh | D2 potentiator | Six1-Eya2 inh | CtBP-E1A inh | TRPML1 agonist
Cc1onc(-c2ccccc2)c1CNS(=O)(=O)c1cccc(Cl)c1 | . | -20 | -5 | 5 | 4 | 0.1
N#C/C(=C\c1ccc(O)c([N+](=O)[O-])c1)c1nc2ccccc2s1 | 24 | 14 | -16 | -28 | ? | 1.2
C#CCNc1nc(CC)nc2c1nnn2Cc1ccccc1F | 0 | -6 | -25 | 4 | 0 | 1.5
Fc1ccc(N2N=C(c3cccs3)CC2c2ccccc2)cc1 (stereo not given) | -4 | -6 | 5 | 58 | 85 | 1.7
COc1cccc(CNC(=O)CCc2ccc(OC)c(OC)c2)c1 | -19 | 5 | 1 | 7 | -14 | -1.5
CCN1N=C(c2ccccc2)CCC1=O | -15 | 10 | 2 | 3 | 3 | 0.5
Cc1ccc(S(=O)(=O)N2CCCCC2)cc1NC(=O)COC(=O)C1CC2C=CC1C2 (stereo not given) | 13 | 1 | 0 | -2 | 5 | -0.5
O=C(COc1c(Br)cc(Br)cc1Br)N/N=C/c1ccco1 | -4 | -22 | -9 | -13 | -2 | 0.5
Cc1ccc(-c2csc(NC(=O)c3ccccc3F)c2C(=O)O)cc1 | 11 | -13 | -4 | -70* | . | 1.5
Cc1cc(C(=O)CSc2nn(-c3ccccc3)c(=S)s2)c(C)n1Cc1ccco1 | -1 | -3 | -14 | -14 | -16 | -0.1
O=C(NCc1ccccc1)C1CC(=O)N(C2CCCCCC2)C1 (stereo not given) | 3 | -6 | 1 | 7 | 3 | 0.6
CC12C(=O)N(c3ccccc3C(=O)O)C(=O)C1C1C=CC2C1 (stereo not given) | -8 | 7 | 11 | 3 | 13 | 0.0
